HPGD inh: HPGD (human) dehydrogenase inhibition; Potency, µM, inactives show at the highest dose activity change, negative = inhibition, hits mostly inhibitors; AID 894; 4.3% of 150,000 active; P15428; purified HPGD, NADH fluorescence kinetic, PGE2 substrate; active = well fitted inhibition curve with a large enough effect (not every such curve was filed as active); inconclusive = small, poorly fitted or top-dose-only effect, or another doubt; inactive = no such curve, though single readings can be large or run the other way;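 also: top concentration of the series not given in the record; plate controls included wells without enzyme; inactives centre near -10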
Target sequence (P15428 whole entry, looked up): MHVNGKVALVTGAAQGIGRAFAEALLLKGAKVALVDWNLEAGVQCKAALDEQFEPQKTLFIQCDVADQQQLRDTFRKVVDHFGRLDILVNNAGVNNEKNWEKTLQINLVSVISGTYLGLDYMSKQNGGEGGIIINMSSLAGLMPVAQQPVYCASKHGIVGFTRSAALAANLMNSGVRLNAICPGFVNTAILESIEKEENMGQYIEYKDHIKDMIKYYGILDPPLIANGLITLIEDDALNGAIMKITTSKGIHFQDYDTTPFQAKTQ
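20 nM HPGD preincubated 15 min at room temperature with compound in 50 mM Tris-HCl pH 8, 0.01% Tween 20. Started with 1 mM NAD+ and 30 uM prostaglandin E2; NADH fluorescence (360/450 nm) read 5 times over 30-s intervals, last minus first.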
Active calls of the source: *; u = inconclusive. % is scaled to controls: 0 for no effect and ±100 for the full control effect; potency is read from the fitted curve at half-maximal effect.

SMILES	HPGD inh
Cc1ccc(CNC(=O)c2cc3c(=O)n4ccccc4nc3n(Cc3ccco3)c2=N)cc1	u
COc1ccc(-c2ccnc3nc(-n4cccc4)nn23)cc1	u
CCOC(=O)C1CCCN(C(=O)c2ccccc2Oc2ccccc2)C1 (centres undefined)	-1%
O[C@@](CCN1CCCCC1)(c1ccccc1)C1CCCCC1	-5%
Cn1c(=O)c2c3c(sc2n2c(SCc4ccccc4)nnc12)CCCC3	-14%
O=C(O)c1cc(NS(=O)(=O)c2ccc3ccccc3c2)ccc1O	-3%
COc1cccc(-c2nn(-c3ccccc3)cc2C(=O)O)c1	-14%
O=C(NN1C(=O)c2cc(Br)ccc2NC1c1ccccc1Cl)c1ccncc1 (centres undefined)	-6%
CN(C)S(=O)(=O)c1ccc(NC(=O)c2c(F)cccc2Cl)cc1	-14%
OCc1ccccc1O	-1%
CC(C)N(C#N)c1nc(N2CCOCC2)nc(N2CCOCC2)n1	u
CCc1cccc(C)c1NC(=S)NCc1ccc2[nH]c(C)cc2c1	-16%
COc1ccc(C(=O)Oc2ccc3c(c2)OCO3)cc1OC	-3%
Cc1cccc(-c2cc(=O)c3cc(Br)ccc3o2)c1	-9%
COC(=O)CSc1ccc(-c2nc3ccc(C)cc3[nH]2)cn1	u
COc1cc(OC)cc(-c2cc(N3C(=O)Nc4ccccc4N3O)n[nH]2)c1	0%
CN(C(=O)c1c(Br)cnn1C)C12CC3CC(CC(C3)C1)C2	3%
S=C1NC2=C(C(c3ccc(Br)cc3)N1)N1CCC2CC1 (centres undefined)	3%
COc1ccccc1/C=C/C(C)=O	-27%
O=C(CSc1nc2ccccc2s1)c1sc2sc3ccccc3[n+]2c1O	u
C(=NCCCN1CCOCC1)c1ccc2c(c1)OCO2	-19%
Cc1cc(C(=O)Nc2c(C)n(C)n(-c3ccccc3)c2=O)c(C)o1	-1%
CCOC(=O)c1cnc2c(cnn2C)c1NCCC#N	-23%
COCCn1c(C)cc(C(=O)CSc2nncn2-c2ccccc2)c1C	-1%
CN(c1ccc(C(=O)NCc2cccnc2)cc1)S(C)(=O)=O	-8%

The closing 5 records of the section above come first, to join the parts:
SMILES	HPGD inh
C(=NCCCN1CCOCC1)c1ccc2c(c1)OCO2	-19%
Cc1cc(C(=O)Nc2c(C)n(C)n(-c3ccccc3)c2=O)c(C)o1	-1%
CCOC(=O)c1cnc2c(cnn2C)c1NCCC#N	-23%
COCCn1c(C)cc(C(=O)CSc2nncn2-c2ccccc2)c1C	-1%
CN(c1ccc(C(=O)NCc2cccnc2)cc1)S(C)(=O)=O	-8%
CCN(CC)S(=O)(=O)c1ccc(NC(=O)Cn2cnc3ccccc3c2=O)cc1	-7%
CCc1nnc(NC(=O)c2cc(-c3ccccc3)nn2-c2ccccc2)s1	-11%
Cc1ccc(-n2c(O)c(C=Nc3ccc4c(c3)OCO4)c3ccccc3c2=O)cc1C	-19%
O=c1c2ccccc2c(-c2ccc(Cl)cc2)nn1-c1ccccc1	-8%
COc1ccc(NC(=O)c2cccnc2C(=O)O)c(OC)c1	-10%
CCOC(=O)c1c(-c2ccccc2)csc1NC(=O)c1ccc(N2C(=O)CCC2=O)cc1	u
Nc1ccccc1C(=O)NCc1ccccc1	u
O=C(COc1ccc(Cl)cc1)Nc1nc(-c2ccc(S(=O)(=O)N3CCOCC3)cc2)cs1	-8%
O=S(=O)(CCc1nnc(-c2ccccc2)o1)c1ccc2ccccc2c1	-4%
COc1cccc(NC(=O)c2nnn(CCc3ccccc3)c2N)c1	1%
CCCCCCCCC(=O)N/N=C/c1ccccn1	-11%
O=C(NCCSc1ccccc1)c1ccccc1Cl	13µM*
c1ccn2c(CNc3ncnc4sccc34)nnc2c1	-4%
O=C(NC1CCCCC1)c1cc([N+](=O)[O-])ccc1N1CCOCC1	-1%
CCOC(=O)N1CCC(NC(=O)C2CCN(c3nc(-c4ccc(OC)cc4)no3)CC2)CC1	-13%
N=C1C(c2nc3ccccc3s2)=C(O)CN1Cc1ccco1	u
Cc1ccc(/C=N/NC(=O)C(C)Oc2ccccc2[N+](=O)[O-])s1 (centres undefined)	-8%
C(/C=C/c1ccccc1)=N/N1CCN(c2ccccc2)CC1	-1%
Clc1cccc(Nc2ncnc3c2cnn3-c2ccccc2)c1	u
Nc1cccc(C(=O)OCC(=O)c2ccccc2)c1	-1%
CSc1ccccc1NC(=O)Nc1ccc(Cl)cc1	-24%
O=C(/C=C/c1ccccc1)CC(O)(c1ccccc1)C(F)(F)F (centres undefined)	-11%
Cc1cc(C(=O)CSc2n[nH]c(N)n2)c(C)n1-c1ccccc1	-14%
COc1ccccc1-n1c(CNc2ccc(F)cc2)nnc1SCC(=O)Nc1cc(C)on1	-18%
CCOc1ccc(NC(=S)/C(=C(\[O-])c2ccc(C)c([N+](=O)[O-])c2)[n+]2ccccc2)cc1	u

In another format: results already given.
SMILES | HPGD inh
COc1ccc(NC(=O)c2cccnc2C(=O)O)c(OC)c1 | -10%
O=C(COc1ccc(Cl)cc1)Nc1nc(-c2ccc(S(=O)(=O)N3CCOCC3)cc2)cs1 | -8%

The listing continues.
SMILES	HPGD inh
CCN(CC)S(=O)(=O)c1ccc(NCC2COc3ccccc3O2)c([N+](=O)[O-])c1 (centres undefined)	-16%
COc1ccc(C2(C(=O)Nc3nncs3)CCCC2)cc1	-10%
C=C(C)Cn1c(NCCOC)nc2c1c(=O)[nH]c(=O)n2C	-7%
CC(/C=N/n1c(COc2ccccc2)n[nH]c1=S)=C\c1ccccc1	5.6µM*
CS(=O)(=O)N(CC(=O)N1CCN(c2ccccc2)CC1)C1CCCCC1	-2%
CCn1c(=O)c2c3c(sc2n2c(SCc4ccc(F)cc4)nnc12)CCCC3	-14%
CC(=Nc1ccc(C)c(C)c1)C1=C(O)CSC1=O	-10%
CCCCn1c(SCC(=O)NCc2ccco2)nc2ccccc2c1=O	-11%
COC(=O)[C@H](C(C)C)n1c(C)c(C(C)=O)c(C(C)=O)c1C	2%
N#Cc1cnc(SCCc2ccccc2)nc1N	-15%
O=C(CCCN1C(=O)c2ccccc2C1=O)N1CCN(c2ccccn2)CC1	-6%
Cc1ccc(CSc2nc3c(c(=O)[nH]2)CCC3)cc1	10µM*
Cc1cccc(NC(=O)C2CCCN2/C=C/C(=O)C(F)(F)F)c1C (centres undefined)	-17%
O=C(CSc1nc2c(sc3ccccc32)c(=O)n1-c1ccccc1)NCc1ccco1	-22%
N#CCCn1c(=O)c(CCc2ccccc2)nc2cnc(Oc3cccc(Cl)c3)nc21	0%
O=C(O)CCCC(=O)N1CCN(C(c2ccccc2)c2ccccc2)CC1	1%
O=C(CCC1CC(=O)Nc2ccccc21)NCc1cccnc1 (centres undefined)	-5%
OCCN1CCOCCOCCN(CCO)CCN(CCO)CC1	-25%
O=c1[nH]c(CN2CCCCC2)nc2ccccc12	-8%
C#CCCOC(=O)N1C2=NC(C(=O)OC)=C(C(=O)OC)[C@@H]3N(C)c4ccc(OC)cc4[C@]23C[C@H]1C(=O)OC	-13%
COc1cc(/C=N/NC(=O)c2cccnc2)ccc1OS(=O)(=O)c1ccc(C)cc1	-19%
COc1cc(/C=N/NC(=O)c2ccncc2)ccc1OCCN1CCCCC1	-12%
COC(=O)c1c(C)[nH]c(C(=O)CSc2ncnc3sc(-c4ccccc4)cc23)c1C	u
Cc1cc(C)cc(OC(=O)CCN2C(=O)c3ccccc3C2=O)c1	u
COC(=O)C1CCN(c2cc(=O)n(Cc3ccc(F)cc3)c(=O)[nH]2)CC1	6%

(further entries)
SMILES	HPGD inh
CC(C)(C)NC(=O)c1ccc2nsnc2c1	-18%
O=C(Nc1ccon1)c1ccc(OC2CCCC2)cc1	-29%
COCCNC(=S)NC1CC2CCCC(C1)N2Cc1ccco1 (centres undefined)	-12%
CCCS(=O)(=O)N1CCN(Cc2ccccc2OCC)CC1	-8%
CCCc1[nH]nc2c1C(c1ccc(O)cc1OCC)C(C#N)=C(N)O2 (centres undefined)	-5%
CCCC1(CCC)NC(=O)N(CC(=O)Nc2ccccc2OC)C1=O	3%
O=C(NC1CCCC1)c1cc2c(ccc3ccccc32)o1	u
Cc1ccc(N2CCOCC2)c2c1C(=O)c1ccccc1C2=O	-29%
c1ccc2c(c1)nc(N1CCOCC1)c1nnnn12	-14%
Cn1c(=O)cc(SCC(=O)N2CCOCC2)c2ccc(Cl)cc21	-26%
CCCCn1c(C(C)NC(=O)c2cccs2)nc2ccccc21 (centres undefined)	7%
C=CCO/N=C/C1C(=O)CC(C)(C)CC1=O	-4%
O=C(O)CSc1nnc(C2CC2)n1-c1ccccc1	-15%
O=[N+]([O-])c1ccc(N2CCN(CCO)CC2)cc1NCc1ccco1	-27%
COc1ccc(S(=O)(=O)N2CCCC(C(=O)N3CCOCC3)C2)cc1C (centres undefined)	-22%
CCCOc1c(Br)cc(C(=O)NCC)cc1OC	-1%
CCCCN(CC)CCNC(=O)c1cc2c(=O)n(C)c3ccccc3c2n1C	u
COc1ccc(CNC(=O)CN(CC2CCCO2)C(=O)CNS(=O)(=O)c2ccc(C)cc2)cc1 (centres undefined)	-7%
COc1ccccc1-n1cnnc1SCC(=O)N1CC(=O)Nc2ccccc21	-5%
Cc1cc2ccccc2n1CCNC(=O)c1ccc(S(=O)(=O)N2CCCCC2)cc1	-19%
CCCCCCC(=O)N/N=C(\C)Cc1ccccc1	-5%
CC(C)c1cccc2nc3c(c([Si](C)(C)C)c12)Cn1c-3cccc1=O	u
Cc1cccc(C2=N[C@@H](Cc3ccccc3)CO2)c1	-14%
Cc1occc1C(=O)NCc1cccc(CNC(=O)c2ccoc2C)c1	-13%
Nc1ncnc2nc(Sc3ccc(Cl)cc3)[nH]c12	-9%

The results go on:
SMILES	HPGD inh
COc1ccc(C(=O)N(CCCO)Cc2cc3c(C)ccc(C)c3[nH]c2=O)cc1OC	u
COc1ccc(OC)c(CCNC(=O)C2CCN(c3nnc(-n4cccc4)s3)CC2)c1	-8%
Cn1c(C(=O)OCC(=O)NCCc2ccccc2)cc2sccc21	-9%
CC1CC(C)(C)CC2(C1)NC(=O)N(CC(=O)NC1CCCc3ccccc31)C2=O (centres undefined)	-1%
COC(=O)/C(=N/Nc1ccccc1Cl)Sc1nnc(C(O)c2ccccc2)n1-c1ccccc1 (centres undefined)	-15%
CCc1nnc(NC(=O)c2sc3nc4cc(C)ccc4cc3c2N)s1	-10%
CCOC(=O)C(Cc1cc(C(C)=O)ccc1OCC)C(=O)OCC	-1%
COc1ccc(/C=C2/C(=O)N(CC3CCCO3)C(=S)N2C)c(OC)c1 (centres undefined)	-18%
CCOC(=O)CSc1nc(N)c(C#N)c(-c2cccs2)c1C#N	-19%
O=c1c2ccccc2nc(-c2cccc(Cl)c2)n1O	-6%
CCOC(=O)C1CCN(C(=O)/C=C/c2ccc(OC)cc2)CC1	-5%
Nc1nnc(SCCCC(=O)c2ccc(F)cc2)s1	-30%
CCOC(=O)c1sc(NC(=O)CSc2nnc(Cc3ccccc3)o2)c(C#N)c1C	2µM*
CS(=O)(=O)N(CC(=O)N1CCN(c2ccccc2)CC1)Cc1ccc(Cl)cc1	-7%
O=C(O)c1cc(-c2ccco2)[nH]n1	-1%
COc1ccc(NC(=O)C2CCCN(S(=O)(=O)c3cccnc3)C2)c(OC)c1 (centres undefined)	-6%
CCC(c1nnnn1C(C)(C)CC)N(CCCN1CCOCC1)Cc1cc2cccc(C)c2[nH]c1=O (centres undefined)	-2%
Cc1ccc(C(=O)N/C(=C\c2ccco2)C(=O)NCC2CCCO2)cc1C (centres undefined)	-18%
CCC1(C)Cc2c(sc3c2c(=O)n(C)c2nnc(SCc4ccc5c(c4)OCO5)n32)CO1 (centres undefined)	-7%
Nc1c(-c2ccc(F)cc2)cnn1C1CCS(=O)(=O)C1 (centres undefined)	-17%
CCNc1nc(C)cc(COC)c1C#N	u
COc1ccccc1-c1cc(C(F)(F)F)nc(N2CCCC2)n1	u
COc1ccccc1-n1c(CNc2c(C)cccc2C)nnc1SCC(=O)N1CCOCC1	-3%
CCN1C(=O)CC(N2CCC(Nc3ccc(F)cc3)CC2)C1=O (centres undefined)	-10%
OC(CN1CCN(c2cccc(C(F)(F)F)c2)CC1)c1c[nH]c2ccccc12 (centres undefined)	-16%

Reformatted: entries from further up
> CCNc1nc(C)cc(COC)c1C#N
  HPGD inh = u
> COc1ccccc1-c1cc(C(F)(F)F)nc(N2CCCC2)n1
  HPGD inh = u
> COc1ccccc1-n1c(CNc2c(C)cccc2C)nnc1SCC(=O)N1CCOCC1
  HPGD inh = -3%
> CCN1C(=O)CC(N2CCC(Nc3ccc(F)cc3)CC2)C1=O (centres undefined)
  HPGD inh = -10%

(more compounds)
SMILES	HPGD inh
COC(=O)Oc1ccc(/C=N/NC(=O)CN(c2ccccc2Cl)S(C)(=O)=O)cc1OC	-9%
Cc1ccc2nc(-c3ccc(SCC(=O)Nc4nc(C)cs4)nc3)[nH]c2c1	-5%
O=c1c(-c2nnc(SCc3ccc(Cl)c(Cl)c3)o2)cccn1Cc1ccccc1	u
Cc1nc(N2CCOCC2)c2nc(-c3ccccc3)n(C(C)CN(C)C)c2n1 (centres undefined)	u
Cc1c(CCO)sc[n+]1CC(=O)OCCC12CC3CC(CC(C3)C1)C2	0%
Cc1ccc2cc(CN(Cc3ccco3)C(=O)C3CCCCC3)c(=O)[nH]c2c1C	-14%
Cc1cc(C)[n+](-c2ccc(C(C)C)cc2)c2[nH]c(=O)[nH]c(=O)c12	u
Cc1nc(NC(=O)COc2ccc(Cl)cc2)sc1C(=O)N(C)C	-12%
O=S(=O)(c1ccccc1)N1CCC2(CCN(c3ccc(-c4ccccc4)cc3)CC2)CC1	-18%

An excerpt. The share of hits here may be higher or lower than overall.
